FGF22 binding: binders of recombinant human FGF22 by thermal shift; SYPRO orange fluorescence; percent of sucrose octasulfate shift, DMSO zero; calls only at 9.99 µM; 340,000 compounds, 1.5% hits;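 active = melting point raised past a set limit in the mean and every replicate; inconclusive = no clear call; three in four hits are not shown here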
Target sequence (Q9HCT0 whole entry, looked up): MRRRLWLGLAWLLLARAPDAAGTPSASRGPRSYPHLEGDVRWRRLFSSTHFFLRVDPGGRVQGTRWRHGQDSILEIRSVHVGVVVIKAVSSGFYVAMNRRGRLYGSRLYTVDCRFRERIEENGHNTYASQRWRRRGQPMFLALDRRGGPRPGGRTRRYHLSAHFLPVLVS
rRNA inh HTS: inhibits bacterial ribosomal RNA function over humanized ribosomes; E. coli WT GFP vs humanized-ribosome RFP mutants, fluorescence, 24 h; hits give low values; DMSO median 0, no signal -100; GFP signal change (wild-type ribosome), % (concentration not given with the values); 350,000 compounds, 1.6% hits;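 active = significant combined selectivity score with lowered wild-type GFP, culture density cut under 30%, mutant RFP and density less affected; inactive = any of these conditions unmet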; note: one replicate is shown; some compounds called inactive have numbers as strong as hits
AF4-AF9 inh: MLL-AF4/AF9 protein interaction inhibition; AlphaScreen, biotin-AF4 peptide binding to FLAG-AF9; inhibition, % at 10 µM; 350,000 compounds, 0.47% hits; AID 651704;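 active = every replicate reaching a set inhibition limit, whatever the replicate mean, cut at about 25% in these data; inconclusive = mean inhibition reaches that limit but some replicates miss it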;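 note: 0% = plate neutral control median and 100% = total signal loss; the record names both 10 and 1 µM as test concentration; the first replicate is given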
Target sequence (P42568 whole entry, looked up): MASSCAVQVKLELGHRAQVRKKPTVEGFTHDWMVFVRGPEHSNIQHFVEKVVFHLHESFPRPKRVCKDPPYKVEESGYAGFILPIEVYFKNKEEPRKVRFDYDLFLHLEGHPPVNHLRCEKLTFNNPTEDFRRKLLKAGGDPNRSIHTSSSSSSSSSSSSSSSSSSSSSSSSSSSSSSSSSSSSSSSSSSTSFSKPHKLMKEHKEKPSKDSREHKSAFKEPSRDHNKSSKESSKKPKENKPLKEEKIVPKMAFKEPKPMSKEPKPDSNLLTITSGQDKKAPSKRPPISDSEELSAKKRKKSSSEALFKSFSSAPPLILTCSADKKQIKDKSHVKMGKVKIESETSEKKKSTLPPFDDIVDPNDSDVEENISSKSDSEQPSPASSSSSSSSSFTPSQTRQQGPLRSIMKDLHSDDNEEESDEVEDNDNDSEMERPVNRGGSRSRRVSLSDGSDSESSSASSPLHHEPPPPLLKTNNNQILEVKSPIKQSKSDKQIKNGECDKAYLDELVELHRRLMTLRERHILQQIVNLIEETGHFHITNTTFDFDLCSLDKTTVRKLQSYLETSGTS
rRNA inh HTS OD600: second read-out of rRNA inh HTS, no call of its own (marks repeat the call); OD600 change, %; measured here: OD600 growth;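 optical density of the mix in the first replicate; 0 = DMSO median and -100 = no signal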
rRNA inh HTS RFP: recorded beside rRNA inh HTS, whose call it bears; RFP signal change, %; measured here: RFP humanized mutant strains;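 first replicate; 0 = DMSO median and -100 = no signal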
Starred values were filed as active, the others as inactive; & = joins results of further samples. The list is partial. The share of hits here may be higher or lower than overall.

How did COc1ccc2c3c([nH]c2c1)[C@H](CO)N(Cc1ccccn1)CC31CN(C(C)=O)C1 do in these assays?
FGF22 binding: inactive; rRNA inh HTS: 4.3; AF4-AF9 inh: 0.9; rRNA inh HTS OD600: 11.9; rRNA inh HTS RFP: -1.9

How did COCCNC(=O)C[C@@H]1CC[C@H]2[C@@H](COc3ccc(NC(=O)C4CCOCC4)cc3C(=O)N2C)O1 do in these assays?
FGF22 binding: inactive; rRNA inh HTS: -0.4; AF4-AF9 inh: -1.6; rRNA inh HTS OD600: 3.1; rRNA inh HTS RFP: -1.7

What do the screens show for `Nc1ccn([C@@H]2O[C@H](C(=O)Nc3cc(C(F)(F)F)cc(C(F)(F)F)c3)[C@@H](O)[C@H]2O)c(=O)n1`?
FGF22 binding: inactive; rRNA inh HTS: -13.2; AF4-AF9 inh: -2.8; rRNA inh HTS OD600: -17.1; rRNA inh HTS RFP: 2.2

Results for O=C(NCC1CCCCC1)[C@H]1[C@H](CO)[C@H]2Cn3c(ccc(C4=CCCC4)c3=O)[C@@H]1N2C(=O)CC1CC1 ?
FGF22 binding: inactive; rRNA inh HTS: -3.8; AF4-AF9 inh: 5.4; rRNA inh HTS OD600: -10.7; rRNA inh HTS RFP: -0.3

What do the screens show for `COc1ccc(S(=O)(=O)N(C)C[C@H]2OCCCC[C@H](C)Oc3ccc(N(C)C)cc3C(=O)N([C@H](C)CO)C[C@@H]2C)cc1`?
FGF22 binding: inactive; rRNA inh HTS: -0.3&-10.1; AF4-AF9 inh: 6.4&7.0&10.5; rRNA inh HTS OD600: -0.9&-12.4; rRNA inh HTS RFP: -0.3&-1.8

What do the screens show for `C[C@@H]1CCCCO[C@H](CN(C)C(=O)c2ccncc2)[C@@H](C)CN([C@H](C)CO)C(=O)c2cc(NC(=O)c3ccncc3)ccc2O1`?
FGF22 binding: inactive; rRNA inh HTS: 2.7; AF4-AF9 inh: -5.3; rRNA inh HTS OD600: 4.6; rRNA inh HTS RFP: -3.8

What do the screens show for `O=C(C[C@@H]1CC[C@H]2[C@@H](COC[C@@H](O)CN2C(=O)C2CCCC2)O1)NCc1ccncc1`?
FGF22 binding: inactive; rRNA inh HTS: -0.3; AF4-AF9 inh: -10.6; rRNA inh HTS OD600: -5.0; rRNA inh HTS RFP: -0.9

How did CO[C@@H]1CN(C)C(=O)c2ccc(NC(=O)C3CC3)cc2OC[C@@H](C)N(Cc2cccnc2)C[C@@H]1C do in these assays?
FGF22 binding: inactive; rRNA inh HTS: -5.2; AF4-AF9 inh: -2.0; rRNA inh HTS OD600: -1.6; rRNA inh HTS RFP: -3.8

What do the screens show for `CO[C@@H]1CN(C)C(=O)c2cc(NC(=O)C3CCC3)ccc2OC[C@H](C)N(Cc2ccccn2)C[C@H]1C`?
FGF22 binding: inactive; rRNA inh HTS: -1.6; AF4-AF9 inh: 1.5; rRNA inh HTS OD600: -2.4; rRNA inh HTS RFP: 0.5

How did CCCC(=O)N1CC2(CCN(C(=O)C3CC3)CC2)c2c(n(C)c3cc(OC)ccc23)[C@H]1CO do in these assays?
FGF22 binding: inactive; rRNA inh HTS: -0.8; AF4-AF9 inh: -2.7; rRNA inh HTS OD600: 15.3; rRNA inh HTS RFP: -0.9

Results for O=C(C[C@H]1C[C@H]2c3cc(NC(=O)CC4CC4)ccc3O[C@H]2[C@@H](CO)O1)NCc1ccc(Cl)cc1 ?
FGF22 binding: inactive; rRNA inh HTS: -2.0; AF4-AF9 inh: -2.3; rRNA inh HTS OD600: -3.3; rRNA inh HTS RFP: -3.4

Results for CCCNC(=O)N(C)C[C@@H]1Oc2cc(C#CC3CC3)ccc2S(=O)(=O)N([C@@H](C)CO)C[C@H]1C ?
FGF22 binding: inactive; rRNA inh HTS: -7.6; AF4-AF9 inh: -1.0; rRNA inh HTS OD600: -20.9; rRNA inh HTS RFP: -1.1

At a glance, some entries already given.
What do the screens show for `O=C(C[C@@H]1CC[C@H]2[C@@H](COC[C@@H](O)CN2C(=O)C2CCCC2)O1)NCc1ccncc1`?
FGF22 binding: inactive; rRNA inh HTS: -0.3; AF4-AF9 inh: -10.6; rRNA inh HTS OD600: -5.0; rRNA inh HTS RFP: -0.9

How did CO[C@@H]1CN(C)C(=O)c2ccc(NC(=O)C3CC3)cc2OC[C@@H](C)N(Cc2cccnc2)C[C@@H]1C do in these assays?
FGF22 binding: inactive; rRNA inh HTS: -5.2; AF4-AF9 inh: -2.0; rRNA inh HTS OD600: -1.6; rRNA inh HTS RFP: -3.8

What do the screens show for `CO[C@@H]1CN(C)C(=O)c2cc(NC(=O)C3CCC3)ccc2OC[C@H](C)N(Cc2ccccn2)C[C@H]1C`?
FGF22 binding: inactive; rRNA inh HTS: -1.6; AF4-AF9 inh: 1.5; rRNA inh HTS OD600: -2.4; rRNA inh HTS RFP: 0.5

How did CCCC(=O)N1CC2(CCN(C(=O)C3CC3)CC2)c2c(n(C)c3cc(OC)ccc23)[C@H]1CO do in these assays?
FGF22 binding: inactive; rRNA inh HTS: -0.8; AF4-AF9 inh: -2.7; rRNA inh HTS OD600: 15.3; rRNA inh HTS RFP: -0.9

Results for O=C(C[C@H]1C[C@H]2c3cc(NC(=O)CC4CC4)ccc3O[C@H]2[C@@H](CO)O1)NCc1ccc(Cl)cc1 ?
FGF22 binding: inactive; rRNA inh HTS: -2.0; AF4-AF9 inh: -2.3; rRNA inh HTS OD600: -3.3; rRNA inh HTS RFP: -3.4

Results for CCCNC(=O)N(C)C[C@@H]1Oc2cc(C#CC3CC3)ccc2S(=O)(=O)N([C@@H](C)CO)C[C@H]1C ?
FGF22 binding: inactive; rRNA inh HTS: -7.6; AF4-AF9 inh: -1.0; rRNA inh HTS OD600: -20.9; rRNA inh HTS RFP: -1.1

Next part:
How did CCc1nc2ccc(C(=O)Nc3cc(-c4ccccc4)ccc3OC)cn2c1N(CC)CCN(C)C do in these assays?
FGF22 binding: inactive; rRNA inh HTS: -50.7; AF4-AF9 inh: inconclusive; rRNA inh HTS OD600: -78.4; rRNA inh HTS RFP: -21.8

How did C[C@@H]1CN([C@H](C)CO)C(=O)Cc2cc(NC(=O)C3CCCCC3)ccc2O[C@H]1CN(C)Cc1ccc(-c2ccccc2)cc1 do in these assays?
FGF22 binding: inactive; rRNA inh HTS: -3.6; AF4-AF9 inh: -0.4; rRNA inh HTS OD600: 7.1; rRNA inh HTS RFP: 0.0

What do the screens show for `CCC(c1nnnn1-c1ccc2c(c1)OCCO2)N1CCN(c2ccc(C)cc2)CC1` (centres undefined)?
FGF22 binding: inactive; rRNA inh HTS: -8.7; AF4-AF9 inh: 6.9; rRNA inh HTS OD600: -16.6; rRNA inh HTS RFP: 0.1

Results for CC(=O)N(C)C[C@@H]1Oc2ncc(C#Cc3ccccc3F)cc2C(=O)N([C@@H](C)CO)C[C@H]1C ?
FGF22 binding: inactive; rRNA inh HTS: 3.1; AF4-AF9 inh: 0.2; rRNA inh HTS OD600: 1.5; rRNA inh HTS RFP: -0.7

How did CN(C)CC(=O)N[C@@H]1C=C[C@H](CC(=O)NCc2ccc(Cl)cc2)O[C@@H]1CO do in these assays?
FGF22 binding: inactive; rRNA inh HTS: 0.9; AF4-AF9 inh: -2.3; rRNA inh HTS OD600: 10.4; rRNA inh HTS RFP: -1.5

What do the screens show for `CCCC#Cc1ccc([C@@H]2[C@H](C#N)N(S(C)(=O)=O)[C@H]2CO)cc1`?
FGF22 binding: inactive; rRNA inh HTS: 5.5; AF4-AF9 inh: -0.8; rRNA inh HTS OD600: -13.4; rRNA inh HTS RFP: -5.1

Results for CS(=O)(=O)Nc1ccc2c(c1)[C@@H]1C[C@H](CC(=O)NCCN3CCCCC3)O[C@H](CO)[C@@H]1O2 ?
FGF22 binding: inactive; rRNA inh HTS: 1.6; AF4-AF9 inh: 2.7; rRNA inh HTS OD600: 10.5; rRNA inh HTS RFP: 0.2

Results for O=C(C[C@@H]1C=C[C@H](NS(=O)(=O)c2ccccc2)[C@@H](CO)O1)NCc1ccc(Cl)c(Cl)c1 ?
FGF22 binding: inactive; rRNA inh HTS: -6.0; AF4-AF9 inh: -2.4; rRNA inh HTS OD600: -6.6; rRNA inh HTS RFP: 5.7

What do the screens show for `CC(C)C#Cc1cnc2c(c1)C(=O)N([C@H](C)CO)C[C@H](C)[C@H](CN(C)C(=O)Nc1ccccc1)O2`?
FGF22 binding: inactive; rRNA inh HTS: -2.1; AF4-AF9 inh: -2.7; rRNA inh HTS OD600: 6.5; rRNA inh HTS RFP: -2.2

What do the screens show for `CO[C@@H]1CN(C)C(=O)c2ccc(NC(=O)Nc3c(C)noc3C)cc2OC[C@@H](C)N(CC2CC2)C[C@H]1C`?
FGF22 binding: inactive; rRNA inh HTS: 2.0; AF4-AF9 inh: 0.2; rRNA inh HTS OD600: 8.0; rRNA inh HTS RFP: -2.9

How did COc1ccc(S(=O)(=O)N(C)C[C@H]2OCCCC[C@@H](C)Oc3ccc(NS(=O)(=O)c4cccs4)cc3C(=O)N([C@@H](C)CO)C[C@H]2C)cc1 do in these assays?
FGF22 binding: inactive; rRNA inh HTS: -6.4; AF4-AF9 inh: 3.1; rRNA inh HTS OD600: -2.5; rRNA inh HTS RFP: 4.8

How did C[C@@H]1CN([C@@H](C)CO)C(=O)c2cc(NS(=O)(=O)c3ccc(Cl)cc3)ccc2O[C@@H](C)CCCCO[C@H]1CN(C)C do in these assays?
FGF22 binding: inactive; rRNA inh HTS: 1.9; AF4-AF9 inh: -1.8; rRNA inh HTS OD600: 6.2; rRNA inh HTS RFP: 0.2

How did COC(=O)C[C@H]1CC[C@@H]2[C@@H](COc3ccc(NC(=O)c4ccc(C(F)(F)F)cc4)cc3C(=O)N2C)O1 do in these assays?
FGF22 binding: inactive; rRNA inh HTS: -4.5; AF4-AF9 inh: -2.3; rRNA inh HTS OD600: -6.6; rRNA inh HTS RFP: 4.3

How did N#Cc1ccc(-c2ccc3c(c2)[C@@H]2[C@@H](CCN2C(=O)c2ccncc2)[C@H](CO)N3)cc1 do in these assays?
FGF22 binding: inactive; rRNA inh HTS: -4.1; AF4-AF9 inh: 2.2; rRNA inh HTS OD600: 0.5; rRNA inh HTS RFP: -0.8

How did N#C[C@@H]1[C@H](c2ccc(-c3ccc(F)cc3)cc2)[C@H](CO)N1c1nc(-c2ccccc2)cs1 do in these assays?
FGF22 binding: inactive; rRNA inh HTS: 0.3; AF4-AF9 inh: -0.1; rRNA inh HTS OD600: 8.7; rRNA inh HTS RFP: 0.8

Results for CCNC(=O)Nc1ccc2c(c1)C(=O)N(C)[C@H]1CC[C@H](CC(=O)N[C@H](C)c3ccccc3)O[C@H]1CO2 ?
FGF22 binding: inactive; rRNA inh HTS: 0.8; AF4-AF9 inh: -2.9; rRNA inh HTS OD600: 0.9; rRNA inh HTS RFP: -2.6

Results for CCCNC(=O)C[C@H]1CC[C@H]2[C@@H](COc3ccc(NS(=O)(=O)CC)cc3C(=O)N2C)O1 ?
FGF22 binding: inactive; rRNA inh HTS: 5.4; AF4-AF9 inh: -1.9; rRNA inh HTS OD600: 6.5; rRNA inh HTS RFP: -0.5

Results for COc1ccc(NC(=O)N(C)C[C@H]2OCCCC[C@H](C)Oc3ccc(NC(=O)Nc4ccc(F)cc4)cc3C(=O)N([C@@H](C)CO)C[C@@H]2C)cc1 ?
FGF22 binding: inactive; rRNA inh HTS: -4.0; AF4-AF9 inh: 3.4; rRNA inh HTS OD600: -1.9; rRNA inh HTS RFP: 2.9

Results for C[C@H]1CN([C@@H](C)CO)C(=O)c2cc(C3=CCCC3)cnc2O[C@H]1CN(C)C(=O)Nc1ccccc1 ?
FGF22 binding: inactive; rRNA inh HTS: -1.8; AF4-AF9 inh: -1.9; rRNA inh HTS OD600: 8.4; rRNA inh HTS RFP: -1.9

How did COc1ccc(S(=O)(=O)N(C)C[C@@H]2Oc3ccc(NC(=O)CCCN(C)C)cc3C(=O)N([C@H](C)CO)C[C@@H]2C)cc1 do in these assays?
FGF22 binding: inactive; rRNA inh HTS: 0.2; AF4-AF9 inh: -2.0; rRNA inh HTS OD600: 1.4; rRNA inh HTS RFP: 1.1

How did C[C@@H]1CCCCO[C@H](CN(C)Cc2ccc(C(F)(F)F)cc2)[C@H](C)CN([C@@H](C)CO)C(=O)c2cc(NC(=O)CCCN(C)C)ccc2O1 do in these assays?
FGF22 binding: inactive; rRNA inh HTS: -3.0; AF4-AF9 inh: 19.0; rRNA inh HTS OD600: -6.2; rRNA inh HTS RFP: 3.5

What do the screens show for `CCCC#Cc1cnc2c(c1)C(=O)N([C@@H](C)CO)C[C@H](C)[C@@H](CN(C)C(=O)Nc1cc(F)ccc1F)O2`?
FGF22 binding: inactive; rRNA inh HTS: 0.1; AF4-AF9 inh: -0.7; rRNA inh HTS OD600: 11.6; rRNA inh HTS RFP: 2.7

Results for COc1cc(NCCCCC(C)N)c2nccc(C)c2c1 (centres undefined) ?
FGF22 binding: inactive; rRNA inh HTS: 13.1; AF4-AF9 inh: 7.0; rRNA inh HTS OD600: 7.6; rRNA inh HTS RFP: 11.2

Compound activity deposited in PubChem by Broad Institute.
